Rango-impB inh – inhibitors of Rango-importin beta complex formation; Q14974; Rango CFP/YFP FRET sensor + importin beta, 45 min; Potency, µM (series often up to 92.2 µM), without a hit: top-dose inhibition of complex formation; 340,000 tested, 0.031% active; AID 540263; active = rising FRET ratio curve, often small or poorly fitted; inconclusive = mostly compound fluorescence or quenching in the first reads; inactive = flat curves in all reads;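 note: potency is the fitted concentration of half-maximal effect; 0% = DMSO wells and 100% = buffer wells lacking importin beta; nearly all actives have a fitted effect of over 15% in size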
Target sequence (Q14974 whole entry, looked up): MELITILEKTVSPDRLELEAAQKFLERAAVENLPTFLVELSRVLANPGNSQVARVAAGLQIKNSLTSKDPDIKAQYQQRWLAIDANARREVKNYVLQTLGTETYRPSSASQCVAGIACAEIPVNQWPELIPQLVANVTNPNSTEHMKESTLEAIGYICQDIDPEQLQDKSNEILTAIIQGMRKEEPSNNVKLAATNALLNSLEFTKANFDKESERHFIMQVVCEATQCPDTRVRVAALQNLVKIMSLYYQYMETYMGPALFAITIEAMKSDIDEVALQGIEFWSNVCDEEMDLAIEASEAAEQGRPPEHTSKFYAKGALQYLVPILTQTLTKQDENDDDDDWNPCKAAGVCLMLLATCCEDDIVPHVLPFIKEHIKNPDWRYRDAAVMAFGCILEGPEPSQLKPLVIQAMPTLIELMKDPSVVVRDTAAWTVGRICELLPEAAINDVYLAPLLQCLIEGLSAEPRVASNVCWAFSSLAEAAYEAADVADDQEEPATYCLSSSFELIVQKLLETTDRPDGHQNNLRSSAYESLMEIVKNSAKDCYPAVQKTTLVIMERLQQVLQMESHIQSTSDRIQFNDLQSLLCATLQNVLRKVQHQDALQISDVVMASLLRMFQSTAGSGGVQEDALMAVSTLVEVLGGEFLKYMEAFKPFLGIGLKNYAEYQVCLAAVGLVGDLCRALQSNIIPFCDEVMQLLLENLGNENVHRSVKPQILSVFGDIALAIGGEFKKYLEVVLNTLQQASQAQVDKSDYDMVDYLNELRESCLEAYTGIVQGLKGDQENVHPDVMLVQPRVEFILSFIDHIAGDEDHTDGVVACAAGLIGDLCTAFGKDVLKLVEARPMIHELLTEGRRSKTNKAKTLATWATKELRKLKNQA
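Inhibition scored from the CFP 486 nm/YFP 530 nm FRET ratio 45 min after adding 0.125 microM importin beta to 50 nM Rango biosensor preincubated 5 min with compound (room temperature, PBS with DTT, Tween-20, BSA). No-importin wells as positive control.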
miR-21 FLuc – miR-21 reporter, rising signal. HeLa miR-21 FLuc reporter, luciferase, 48 h. Potency, µM (doses to about 38.3 µM), for inactives: at the top dose reporter change, positive = more light. 340,000 tested, under 10 active. AID 2288; active = well fitted rising curve with a large enough effect; inconclusive = small, poorly fitted or top-dose-only effect; inactive = no such curve, though single readings can be large or run the other way;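 note: % of control where 0% means no effect; miR-21 action dims this reporter so a rising signal means less miR-21 action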
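HeLa miR-21-FLuc reporter line, endogenous miR-21; 2000 cells/well in DMEM/10% FBS; compound titration up to ~40uM final, 48 h, 37 degree Celsius; luciferase detection reagent, 15 min lysis, CCD luminescence.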
Rango release inh – inhibition of RanGTP-driven Rango-importin beta dissociation; 340,000 tested, 0.071% active; Biochemical FRET Rango-importin beta, RanGTP-induced dissociation; Potency, µM (doses to about 46.1 µM), without a hit: top-dose activity change, negative = inhibition; active means falling FRET ratio curve, often poorly fitted, with flat reads before Ran was added; inconclusive means other falling curves, or compound fluorescence or quenching; inactive means flat or rising ratio curve;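 note: potency is the fitted concentration of half-maximal effect; % of control where 0% means no effect; nearly all actives have a fitted effect of over 45% in size; -100% = wells without RanGTP and RCC1; the record marks most hits as doubtful in a second field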
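Rango/importin beta premix (0.1/0.25 uM final), PBS + 1 mM DTT + 0.02% Tween-20 + 0.1% BSA; cpd 5 min RT; FRET pre-read; + RanGTP-RCC1 (0.6 uM Ran, 2 mM GTP, 0.2 uM RCC1); 45 min RT; FRET post-read, ex 430, em 486/530 nm.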
GLA inh pH 4.5 – inhibitors of human alpha-galactosidase A at pH 4.5. P06280. purified enzyme, 4-MU-alpha-Gal fluorescence, pH 4.5. activity change, negative = inhibition, % at 105 µM. 230,000 tested, under 10 active. AID 1467; inconclusive = small, poorly fitted or top-dose-only inhibition, or a rising curve; inactive = flat fitted curve, though single readings scatter; no compound was filed as active;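 note: 0% = full activity with enzyme and -100% = basal without enzyme; dose as in the result columns while the protocol names 77 µM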
* marks the source's active call; other numbers are inactive results; ? = inconclusive; . = no result given. Not all compounds are listed, so the mix of outcomes need not match the whole.

Rango-impB inh | miR-21 FLuc | Rango release inh | GLA inh pH 4.5 | smiles
-0.1% | -4% | 1% | -3 | OC(COCC1COc2ccccc2O1)CN1CCN(c2ccccc2)CC1 (configuration not stated)
-0.1% | . | 0% | . | CCOc1ccc(NC(=O)CN(C)C(=O)c2ccc(NC3CC3)c([N+](=O)[O-])c2)cc1OCC
4.2% | -2% | 1% | 2 | COc1ccc(OCCC(=O)OCc2c(C)noc2C)cc1
3.1% | -10% | 13% | -1 | CCC(=O)OCc1cc2cccc(C)c2[nH]c1=O
-1.9% | 1% | 8% | . | CN1CCCN(C(=O)c2cccc(Cl)c2)CC1
-1.0% | -1% | -9% | . | C[C@H](NC(=O)[C@@H]1Cc2ccccc2CN1)C(=O)NC1CCCCC1
2.2% | -52% | 9% | 2 | Clc1ccc2oc(-c3ccccc3)nc2c1
0.5% | 15% | 8% | 8 | Cc1cc(C(=O)N2CCc3ccccc32)n(-c2ccccc2)n1
1.9% | -5% | -14% | 1 | CCOc1ccc(Oc2nc(NCC(C)C)nc(N(C)C)n2)nn1
1.2% | . | 5% | . | CCOc1ccc(C(=O)NCC(c2ccco2)N2CCc3ccccc3C2)cc1 (configuration not stated)
-0.1% | -8% | -6% | . | CC(=O)Nc1ccc(OCC(O)Cn2cccn2)cc1 (configuration not stated)
. | 0% | . | 5 | O=C1NCCCC1C(=O)N1CCN(C(=O)C2CCCNC2=O)CC1 (configuration not stated)
1.9% | 29% | 1% | -11 | Nc1ncc(-c2nnnn2-c2ccc(Cl)cc2)c(-c2ccc(Cl)cc2)n1
-6.7% | -21% | 1% | 3 | COc1ccccc1CN1C2CCCC1CC(NC(=O)/C=C/c1ccccc1)C2 (configuration not stated)
-1.1% | -30% | 13% | 1 | FC(F)(F)c1ccc2c(c1)nc1n2CCCC1
0.2% | 2% | 2% | -5 | N#Cc1cc(-c2ccccc2)cnc1Cl
-0.3% | -1% | -10% | 2 | C=CCNC(=O)C1=NOC(CNC(=O)c2c(-c3ccccc3Cl)noc2C)C1 (configuration not stated)
-1.7% | -9% | -7% | 0 | O=C(Nc1cccc(O)c1)N1CCOCC1
-2.9% | -19% | 2% | -14 | Cc1ccc(C)c(S(=O)(=O)Nc2nc(C)c(C(=O)Nc3ccccc3)s2)c1
-1.5% | -21% | 25% | . | CCOC(=O)c1cc2cc3ccccc3cc2oc1=O
-4.4% | -11% | -8% | 1 | Cc1nc2c(ccc3c([N+](=O)[O-])cccc32)c(C)c1C
-1.2% | -15% | 21% | 5 | O=C1c2ccccc2S(=O)(=O)N1CC(O)Cn1c2ccccc2c2ccccc21 (configuration not stated)
1.8% | . | 7% | . | NC(=O)c1ccc(NC(=O)COC(=O)CC2Sc3ccccc3NC2=O)cc1 (configuration not stated)
? | . | 25% | . | CC(C)C(NC(=O)CCNC(=O)c1ccc([N+](=O)[O-])cc1)c1nc2ccccc2[nH]1 (configuration not stated)
-0.2% | 3% | 3% | 1 | CCOC(=O)CNC(=O)CSc1nccn1Cc1ccco1
-2.4% | . | 21% | . | CC(=O)C[C@@H](O)CC(=O)[C@H]1OC(=O)CCCCCc2ccccc21
0.2% | -9% | 6% | 7 | O=C(NCCOc1cccc(Cl)c1Cl)c1cc(-n2cnnc2)ccc1Cl
-0.3% | 0% | 1% | . | COc1ccc(-n2c(SCC(=O)NCC3CCCO3)nc3c(c2=O)SC(C)C3)cc1 (configuration not stated)
0.7% | 25% | 1% | -4 | COC(=O)c1[nH]c2c(c1C)C(=O)CC(c1ccccc1)C2 (configuration not stated)
. | -5% | . | 6 | Cc1ccc(C)c(OCC(=O)N/N=C/c2c(C)nn(-c3ccccc3)c2Cl)c1
-0.1% | -10% | 1% | . | O=C(O)c1cccc(N2C(=O)CSC2=S)c1
3.1% | . | 6% | . | COc1cc(/C=C2\SC(N)=NC2=O)ccc1OCC(=O)Nc1ccccc1C
-0.4% | -52% | 30% | 10 | COc1ccc(NC(=O)Nc2ccccc2SC)cc1OC
-1.2% | 9% | 4% | -14 | Oc1c(C(c2ccco2)N2CCN(C(c3ccccc3)c3ccccc3)CC2)sc2ncnn12 (configuration not stated)
-0.2% | -5% | 10% | 10 | CC1(C)CC(=O)C(C(=S)Nc2ccccc2)=C(NCCN2CCOCC2)C1
-0.5% | 2% | 16% | 4 | C#CCOc1c(Br)cc(/C=N\NC(=O)CN2CCOCC2)cc1OCC
? | -9% | -26% | -4 | CN=c1scc(-c2ccc(OC)cc2)n1/N=C(\C)c1cccnc1
-0.1% | . | -7% | . | CCCN(C(=O)CSCc1ccc(Cl)cc1)c1c(N)n(Cc2ccccc2)c(=O)[nH]c1=O
-0.5% | 11% | 1% | -9 | COc1ccc(OC)c(NC(=S)N2CCN(C/C=C/c3ccccc3)CC2)c1
-0.6% | . | -22% | . | C/C(=N\NC(=O)CCC(=O)N/N=C(\C)c1ccc(C)o1)c1ccc(C)o1
0.0% | 0% | -5% | . | O=CN1N=C(c2ccccc2)CC1c1ccc(Cl)cc1 (configuration not stated)
-5.3% | -6% | 3% | -1 | O=C(CSc1ncnc2c1oc1ccccc12)N1CCCc2ccccc21
3.0% | -50% | -12% | 2 | c1ccc(SCCN2CCc3ccccc3C2)cc1
-3.1% | -2% | 0% | -2 | Cc1ccc(NC(=O)c2cccc(N3C(=O)C4C5CCC(C5)C4C3=O)c2)c(C)c1 (configuration not stated)
0.5% | 0% | -2% | . | O=C(Nc1ccc2oc(-c3ccccc3F)nc2c1)c1ccc([N+](=O)[O-])o1
2.5% | 0% | -4% | 3 | O=c1cnnc(Nc2ccccc2F)[nH]1
-2.7% | 0% | 0% | 2 | C#CCOCCOCCOCCNc1nc(N2CCN(C(=O)C([C@@H](C)CC)n3cc(C(N)CC(C)C)nn3)CC2)nc(N2CCN(C(=O)[C@H](CCC(=O)O)n3cc(C(N)CC(C)C)nn3)CC2)n1 (some centres not stated)
5.0% | -47% | 0% | -4 | O=C(NCc1ccco1)c1sc2cc(Cl)ccc2c1Cl
-0.1% | 6% | 5% | -8 | Cc1ccc(-n2nnnc2SC(C)C(=O)Nc2ccc(Cl)cn2)cc1 (configuration not stated)
-2.7% | . | -24% | . | CC(=O)Nc1ccc(S(=O)(=O)N2c3ccc(F)cc3CCC2C)cc1 (configuration not stated)
4.4% | -20% | 19% | -3 | COCCN(C(=S)Nc1cccc(OC)c1)C(C)c1cccs1 (configuration not stated)
1.5% | 12% | 7% | -16 | CCN(CC)c1ccc(C2C(C(=O)OC(C)C)C(=O)CC(C)(O)C2C(=O)OC(C)C)cc1 (configuration not stated)
-0.3% | -5% | 3% | . | O=S(=O)(NCCCc1ccccc1)c1ccc(F)c(F)c1
-4.5% | 0% | 11% | . | CCOc1ccc(Cl)cc1CNCCCSc1ncccn1
-4.6% | -3% | 4% | . | Cc1ccc(NC(=O)c2cc(-c3cc(C)c(C)cc3O)n[nH]2)cc1C
-0.2% | -4% | 2% | 6 | Cc1noc(C)c1S(=O)(=O)N1CCC(C(=O)N2CCN(c3ccc(F)cc3)CC2)CC1
1.2% | -41% | -5% | 0 | O=C(NCc1cccs1)c1ccc(N2CCCC2=O)cc1
7.0% | 1% | 2% | 8 | O=C(CSc1nnc(-c2cccs2)n1-c1ccccc1)NCC1CCCO1 (configuration not stated)
3.3% | -57% | 1% | -4 | Cc1ccccc1OCC(=O)Nc1ccc2c(c1)OCO2
? | 3% | ? | -15 | O=[N+]([O-])c1ccc(O)c(/C=N/NC2=NS(=O)(=O)c3ccccc32)c1

Whole records, looked up by structure:
Results for `Cc1ccc(-n2nnnc2SC(C)C(=O)Nc2ccc(Cl)cn2)cc1` (configuration not stated) = Rango-impB inh = -0.1%; miR-21 FLuc = 6%; Rango release inh = 5%; GLA inh pH 4.5 = -8
Results for `O=C(NCc1cccs1)c1ccc(N2CCCC2=O)cc1` = Rango-impB inh = 1.2%; miR-21 FLuc = -41%; Rango release inh = -5%; GLA inh pH 4.5 = 0
Results for `CCOc1ccc(Cl)cc1CNCCCSc1ncccn1` = Rango-impB inh = -4.5%; miR-21 FLuc = 0%; Rango release inh = 11%; GLA inh pH 4.5 = .

Quoted from the listing.
GLA inh pH 4.5, Cc1ccc(C)c(OCC(=O)N/N=C/c2c(C)nn(-c3ccccc3)c2Cl)c1 is entered as 6
GLA inh pH 4.5, Oc1c(C(c2ccco2)N2CCN(C(c3ccccc3)c3ccccc3)CC2)sc2ncnn12 (configuration not stated) is entered as -14
GLA inh pH 4.5, CCOC(=O)CNC(=O)CSc1nccn1Cc1ccco1 is entered as 1

Remaining list, next part
Rango-impB inh | miR-21 FLuc | Rango release inh | GLA inh pH 4.5 | smiles
0.2% | -6% | 0% | -6 | COc1ccc(-c2nn(C)c3sc(C(=O)NCc4ccco4)cc23)cc1OC
-1.2% | 15% | 7% | . | COc1cccc(N2CCN(C(=O)c3ccc(CS(=O)Cc4ccc(C)cc4)o3)CC2)c1 (configuration not stated)
0.1% | 1% | 11% | 0 | FC(F)(F)c1nc(NCC2CCCO2)c2nnn(Cc3ccccc3Cl)c2n1 (configuration not stated)
-0.4% | -5% | -2% | -4 | COC(=O)c1cc(C#N)c(N2CC(C)OC(C)C2)nc1C (configuration not stated)
-2.1% | 4% | -15% | -14 | CN(C)CCN(C(=O)c1ccccc1Cl)c1nc2c(Cl)cccc2s1
0.8% | -8% | 2% | . | CCOc1ccc(NC(=O)c2ccc(N3CC4CC(C3)c3cccc(=O)n3C4)c(NC(=O)c3cccnc3)c2)cc1 (configuration not stated)
-2.6% | -1% | 19% | . | CCN1CCCC1CNC(=O)c1cc2cc(OC)c(OC)cc2[nH]1 (configuration not stated)
-1.7% | . | 3% | . | N#Cc1ccccc1OCC(=O)Nc1ccc2c(c1)OCCO2
-0.2% | -67% | 1% | 7 | COc1ccc(C(c2c(O)ccc3ccccc23)N2CCOCC2)c(OC)c1 (configuration not stated)
-1.5% | -6% | -4% | 8 | O=C(NCCN1CCOCC1)c1cc2sccc2n1Cc1ccc(F)cc1
-0.5% | -28% | 12% | -7 | O=C(CN1CCCCC1)Nc1ccc(Br)cc1[N+](=O)[O-]
-0.4% | -11% | 17% | 0 | O=C(c1ccc(Cl)cc1)N1CCCC(C(=O)N2CCN(c3ccccc3)CC2)C1 (configuration not stated)
0.0% | ? | 6% | . | CCOc1ccccc1N(CC)C(=O)c1ccc2c(=O)n3c(nc2c1)CCCCC3
-1.3% | -7% | -5% | 5 | COc1ccc(/C=C/C(=O)Nc2ccncc2)cc1OC
1.7% | 11% | 1% | -17 | CC1C/C(=N/Nc2nc3ccccc3[nH]2)CC(C)(C)C1 (configuration not stated)
-2.9% | . | 0% | . | C=CCn1c(COc2cccc(C)c2)nnc1SC(C)C(=O)NC1CC1 (configuration not stated)
? | -8% | -13% | -9 | O=C(O)CC/C(=C\c1ccc(N2CCCC2)c([N+](=O)[O-])c1)c1nc2ccccc2s1
-0.6% | . | -8% | . | COc1ccc(CN(C)C(C)C(=O)Nc2ccc(S(=O)(=O)N3CCCCC3)cc2)c(OC)c1 (configuration not stated)
-0.9% | -10% | 1% | 9 | O=C(Nc1cccc([N+](=O)[O-])c1)c1ccc2nc(N3C(=O)CCC3=O)sc2c1
0.1% | 1% | 2% | 0 | COc1ccccc1CCc1nnc(CCC(=O)N(C)Cc2cccc3ncccc23)o1
-0.9% | 2% | 14% | . | O=S(=O)(c1ccccc1Cl)N1CCC(Cc2ccccc2)CC1
-1.2% | . | -14% | . | CCC(CC)c1nnc(NC(=O)CSCC(=O)Nc2cc(C)on2)s1
-0.5% | -2% | ? | 4 | COc1ccc(C2=NC(=O)/C(=C\c3cc(OC)c(OC)c(OC)c3)O2)cc1
0.6% | ? | 0% | . | NNC(=O)c1[nH]c2ccc([N+](=O)[O-])cc2c1-c1ccccc1
-1.8% | . | -7% | 4 | Nc1nc(=S)c2[nH]cnc2[nH]1
0.7% | 2% | 0% | . | COc1ccccc1NC(=O)c1ccc(NC2=NC3CS(=O)(=O)CC3S2)cc1 (configuration not stated)
1.6% | 3% | -22% | -9 | O=[N+]([O-])c1ccccc1Nc1c2ccccc2nc2ccccc12
4.8% | -2% | 9% | 0 | Cn1c(=O)c2cc(S(=O)(=O)N3CCC(c4ccccc4)CC3)ccc2n(C)c1=O
